Calb FLC = affects C. albicans growth with fluconazole; C. albicans CaCi-2 (fluconazole-resistant clinical isolate) + fluconazole, Alamar Blue growth, 48 h; growth inhibition, % (concentration not given with the values); 300,000 tested, 0.57% active; AID 1979;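 active = most replicates above 75%; inconclusive = exactly half above 75%; inactive = most below 75%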;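 also: all wells also contain fluconazole at 8 µg/ml as a sub-toxic cotreatment; 0% = median of DMSO wells and 100% = median of geldanamycin control wells; wells of about 8 µL received 7.5 nL stock; the first replicate is given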
A1 inh = inhibitors of the anti-apoptotic protein A1, read as caspase activation | 330,000 tested, 0.066% active | MEF A1-2A-BIM cells, Caspase-Glo 3/7 luminescence, 3 h; percent of clofoctol response, vehicle zero | caspase activation, % (test concentration not listed);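 active = over half of replicate activation scores above 10%, or exactly half above 10 with the replicate mean above 10; inconclusive = replicate mean below 10 yet half the replicates above 10; inactive = over half of replicates below 10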;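 also: wells of about 30 µL received 50 nL stock; many hits fall short of the cut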
Beta2AR agonist = activates human beta-2 adrenergic receptor causing internalization; AID 504454; Am2.2-beta2AR cells, FAP receptor internalization, flow cytometry; reference of the scale not given here; 340,000 tested, 0.43% active; response, % (concentration not given with the values);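 active = response above a set limit, near 3 SD of response in nonfluorescent compounds, cut at about 42% in these data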;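 also: stock transfer was 100 nL into about 11 µL; a reference agonist was the positive control; negative values mostly stem from fluorescent compounds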
UCH37 DUB inh = human UCH37 deubiquitinating enzyme inhibition; inhibition, % (concentration not given with the values); purified proteasome/UCH37, Ub-AMC cleavage fluorescence; 330,000 tested, 0.33% active; Q9Y5K5;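 active = mean of two replicates above 20%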;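 also: 0% = compound-free wells with enzyme and 100% = wells lacking proteasome; stock transfer was 100 nL into about 20 µL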
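Material: Human UCH37 enzyme supplied as purified proteasome complex | Schedule: 30 min compound-proteasome preincubation then 25 min substrate reaction, room temperature | Detection: AMC fluorescence from Ub-AMC cleavage, excitation 355 nm, emission 460 nm | Benchmarks: Wells without proteasome as full block, compound-free enzyme plus substrate as uninhibited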
Beta cell apopt = blocks beta cell apoptosis | INS-1E cytokine-induced death, ATP luminescence, 48 h; percent of positive-control rescue, neutral wells zero | 300,000 tested, 0.8% active | protection from apoptosis, % (test concentration not listed) | AID 435005;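 active = all replicates at 75% or more, or half of them and the mean; inconclusive = half reach 75% but not the mean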;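 also: 0% = cytokine-treated negative control wells and 100% = positive control rescue; higher means more ATP so stronger rescue from cytokine killing; wells of about 40 µL received 100 nL stock; the first replicate is given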
T cruzi inh = blocks replication of Trypanosoma cruzi; T. cruzi beta-gal in NIH3T3, luminescence, 90 h; inhibition, % (no concentration beside the values); 300,000 tested, 1.4% active; AID 1885;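 active = mean inhibition across valid replicates above about 55%, limit read from the data; inconclusive = mean below that limit but half or more replicates reach it; inactive = mean below it, under half of replicates reach it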;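 also: signal also drops with host cell toxicity which is not excluded here; 0% = plate median of DMSO wells and 100% = zero luminescence signal; higher percent means less beta-gal luminescence so fewer parasites; stock transfer was 50 nL into about 50 µL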
LANA-H2A inh = blocks KSHV LANA binding to histone H2A/H2B. cell-free LANA-H2A/H2B peptide, fluorescence polarization. inhibition, % (concentration not given with the values). 320,000 tested, 0.6% active. AID 2629; in the data active = inhibition mostly above about 10%, no sharp cut-off; inactive = mostly below about 6.7%;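 also: stock transfer was 7.5 nL into about 10 µL; 0% = median of vehicle wells and 100% = median of positive control wells; one replicate is shown; the record names a cut of 25% in any replicate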
Target sequence (Q9QR71 whole entry, looked up): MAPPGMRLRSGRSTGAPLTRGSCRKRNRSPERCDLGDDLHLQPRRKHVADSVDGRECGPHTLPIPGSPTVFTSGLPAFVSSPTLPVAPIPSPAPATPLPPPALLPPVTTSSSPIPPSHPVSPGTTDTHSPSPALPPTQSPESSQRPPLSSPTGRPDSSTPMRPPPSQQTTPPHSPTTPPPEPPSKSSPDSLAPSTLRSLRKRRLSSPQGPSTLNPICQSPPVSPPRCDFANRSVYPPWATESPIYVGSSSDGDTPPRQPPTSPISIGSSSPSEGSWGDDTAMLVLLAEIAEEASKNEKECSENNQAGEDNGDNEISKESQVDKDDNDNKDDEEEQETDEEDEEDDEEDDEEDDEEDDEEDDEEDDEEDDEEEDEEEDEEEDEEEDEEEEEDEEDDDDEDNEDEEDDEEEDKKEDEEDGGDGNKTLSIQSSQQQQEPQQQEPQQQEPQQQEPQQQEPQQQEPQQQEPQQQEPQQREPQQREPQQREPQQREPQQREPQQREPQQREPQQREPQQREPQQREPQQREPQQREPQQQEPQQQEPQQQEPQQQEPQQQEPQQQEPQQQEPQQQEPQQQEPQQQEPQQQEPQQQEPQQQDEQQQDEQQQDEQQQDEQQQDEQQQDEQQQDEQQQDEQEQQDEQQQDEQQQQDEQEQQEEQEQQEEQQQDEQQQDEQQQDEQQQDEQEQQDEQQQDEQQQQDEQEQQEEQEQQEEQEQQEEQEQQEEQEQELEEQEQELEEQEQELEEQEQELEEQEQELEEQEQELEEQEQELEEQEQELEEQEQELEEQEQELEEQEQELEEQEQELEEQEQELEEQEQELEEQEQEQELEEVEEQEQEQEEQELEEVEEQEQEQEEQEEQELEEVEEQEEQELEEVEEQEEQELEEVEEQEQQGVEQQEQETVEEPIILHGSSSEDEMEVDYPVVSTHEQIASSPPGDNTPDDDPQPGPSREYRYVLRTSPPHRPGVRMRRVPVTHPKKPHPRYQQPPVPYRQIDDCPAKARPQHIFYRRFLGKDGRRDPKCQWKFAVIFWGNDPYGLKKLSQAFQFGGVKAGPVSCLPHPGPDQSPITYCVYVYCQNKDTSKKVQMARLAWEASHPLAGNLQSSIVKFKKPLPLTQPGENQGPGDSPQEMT
RanGTP-Impb inh = inhibitors of RanGTP-importin-beta interaction, primary screen, biochemical, FRET, CFP-Ran, YFP-importin-beta, homogeneous; AID 2216; 300,000 tested, 1.1% active; cell-free CFP-Ran/YFP-importin-beta FRET ratio; inhibition, % (test concentration not listed);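 active = most replicates above 15%; inconclusive = exactly half above 15%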;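 also: 0% = DMSO wells and 100% = Ran loaded with GDP instead of GTP; wells of about 40 µL received 100 nL stock; the first replicate is given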
* = called active by the depositor; ? = inconclusive; · = no result given. Hits appear at their usual frequency; any-hit rate near 4.3%.

compound	Calb FLC	A1 inh	Beta2AR agonist	UCH37 DUB inh	Beta cell apopt	T cruzi inh	LANA-H2A inh	RanGTP-Impb inh
NC(=O)c1c(NC(=O)c2cnccn2)sc2c1CCCC2	-9.1	0.5	-19.6	0.5	·	1.0	1.2	0.8
COC(=O)c1ccc(Cl)c(NS(=O)(=O)c2ccc3c(c2)OCCO3)c1	-0.4	0.4	-0.9	-1.1	2.0	-6.7	2.6	-1.3
CCOC(=O)C1CCN(S(=O)(=O)c2cc(C(=O)OC)n(C)c2)CC1	3.7	0.2	-4.0	3.5	1.9	6.5	4.1	2.5
Cc1cc(=O)n2nc(N3CCCC(C(=O)NCc4ccc5c(c4)OCO5)C3)sc2n1 (stereo not given)	-7.4	-0.1	-3.6	1.3	-1.6	2.3	-4.1	-4.1
CC(C)C(=O)NNS(=O)(=O)c1ccccc1	-5.4	0.0	3.9	-1.0	-4.6	5.6	-0.3	3.9
COCCCNC(=S)N(Cc1ccccc1)Cc1nc2ccccc2c(=O)[nH]1	-2.6	-0.1	-20.6	-41.8	-4.7	3.1	3.6	1.3
Cc1ccc(NC(=O)COC(=O)Cn2nc(-c3ccc(F)cc3)oc2=O)cc1C	·	-0.6	2.0	1.7	0.2	·	2.2	·
CCOP(=O)(Cc1ccc(C(C)(C)CC(C)=O)o1)OCC	5.8	-1.3	0.8	2.4	-5.7	1.7	-1.8	1.1
COCCCNC(=O)CN1C(=O)COc2ccc(S(=O)(=O)N3CCCCCC3)cc21	-5.2	·	2.0	1.5	·	-3.1	·	0.3
c1ccc(SCCOCCn2cncn2)cc1	-1.6	-1.4	-6.7	4.8	-6.1	4.2	1.1	3.2
NS(=O)(=O)c1ccc(NC(=S)N2CCN(c3ccccc3Cl)CC2)cc1	17.2	1.5	1.4	-2.2	-1.3	-31.7	-1.5	2.9
CCOC(=O)c1ccc(NC(=O)CSc2nc(=O)n(CCN3CCOCC3)c3c2CCC3)cc1	-2.6	-0.2	-0.2	6.8	1.0	3.0	·	0.1
CCOC(=O)N1CCN(c2c(N3CCN(c4ccccn4)CC3)c(=O)c2=O)CC1	·	0.9	-17.7	10.1	·	·	-0.6	·
CC1CCCN(S(=O)(=O)c2ccc(Br)s2)C1 (stereo not given)	-37.7	0.5	-5.1	0.0	-3.4	1.9	-0.3	3.2
Brc1cc2c(cc1COc1ccc(-c3nn[nH]n3)cc1)OCO2	1.0	0.3	5.3	0.3	0.3	-9.4	-0.5	-4.1
O=C(COC(=O)/C=C/c1ccc(F)cc1)Nc1cc(C(F)(F)F)ccc1N1CCOCC1	0.8	0.3	4.3	3.6	-3.4	-8.5	1.9	1.1
COc1ccccc1N1CCN(C2CCCN(C(=O)c3cc(C4CC4)on3)C2)CC1 (stereo not given)	-2.0	0.4	4.7	1.5	-1.9	-2.9	3.0	-0.7
CCCCOc1ccc(C(=O)O)cc1	-8.5	-0.8	-2.3	-1.0	3.6	-16.1	5.0	-0.9
CCCCCCC(C)n1[nH]c(=O)c2c(C)cc(C)nc21 (stereo not given)	0.3	-0.4	2.4	-5.0	0.6	-12.4	3.4	0.6
N#C/C(=N\Nc1ccc(S(=O)(=O)N2CCCCCC2)cc1)C(N)=S	-0.9	-2.2	20.7	·	·	-1.6	-5.0	-2.2
Cn1c2c(c(=O)n(C)c1=O)C(CC(=O)Nc1ccccc1F)C(=O)N2 (stereo not given)	-4.0	0.2	-2.7	1.9	-2.4	6.0	4.3	5.5
CCn1c(=O)cc(SCC(=O)N2CCN(Cc3ccc4c(c3)OCO4)CC2)c2ccccc21	-23.7	-0.7	-0.8	0.5	-3.1	49.1	-0.6	-1.3
CCOC(=O)c1c(NC(=S)NNS(=O)(=O)c2ccc(Br)cc2)sc2c1CCCCC2	37.3	0.1	7.5	4.2	2.2	-4.1	6.7	-0.6
CCCc1ccc2oc(C(=O)NCCc3nc(C(=O)OCC)cs3)c(C)c2c1	2.4	·	5.3	4.8	·	1.6	·	0.1
COc1ccccc1N(CC(=O)NC1CCCCC1)C(=O)c1csnn1	26.9	-0.2	3.3	0.2	-5.1	4.0	1.9	-0.4
COC(=O)c1[nH]c2ccc(Cl)cc2c1NC(=O)CCN1CCN(C2CCCCC2)CC1	-11.9	0.0	-3.2	-8.8	·	20.7	0.9	-2.9
CCCCc1cc(=O)oc2cc(OCc3cc(OC)c(OC)c(OC)c3)c(Cl)cc12	5.7	0.2	-1.5	-9.4	1.3	-2.0	0.7	8.4
COc1ccc(F)cc1S(=O)(=O)Nc1ccc2c(c1)OCCO2	0.2	-0.4	7.2	0.1	-0.9	-3.2	3.2	-0.9
CN(C)S(=O)(=O)c1ccc(C(=O)Nc2ccc(CCC(=O)N3CCCC3)cc2)cc1	-1.3	·	-7.3	0.7	·	-6.1	·	-5.6
Cc1cc(C)nc(SCc2cc(=O)c(OC(=O)c3cccc([N+](=O)[O-])c3)co2)n1	-1.4	0.5	1.0	·	-13.0	-15.2	0.6	2.1

Filtered by structure: the entries above with bromine (three)
compound	Calb FLC	A1 inh	Beta2AR agonist	UCH37 DUB inh	Beta cell apopt	T cruzi inh	LANA-H2A inh	RanGTP-Impb inh
CC1CCCN(S(=O)(=O)c2ccc(Br)s2)C1 (stereo not given)	-37.7	0.5	-5.1	0.0	-3.4	1.9	-0.3	3.2
Brc1cc2c(cc1COc1ccc(-c3nn[nH]n3)cc1)OCO2	1.0	0.3	5.3	0.3	0.3	-9.4	-0.5	-4.1
CCOC(=O)c1c(NC(=S)NNS(=O)(=O)c2ccc(Br)cc2)sc2c1CCCCC2	37.3	0.1	7.5	4.2	2.2	-4.1	6.7	-0.6

Remaining list, next part
compound	Calb FLC	A1 inh	Beta2AR agonist	UCH37 DUB inh	Beta cell apopt	T cruzi inh	LANA-H2A inh	RanGTP-Impb inh
CC1(c2nnc(-c3cccc(Cl)c3)o2)CC(c2ccccc2F)=NO1 (stereo not given)	4.5	-1.0	-6.4	2.6	-4.6	-11.7	-4.7	-0.1
CSc1ccccc1NC(=O)C1CC(c2c(F)cccc2Cl)=NO1 (stereo not given)	5.6	-0.9	-9.3	2.6	-12.0	-1.7	-1.2	?
CC(OC(=O)c1cc(Br)ccc1O)C(=O)NC1(C#N)CCCCC1 (stereo not given)	-4.6	0.9	7.7	0.7	·	-3.8	0.1	0.3
CC1CCN(C(=O)NC(=O)c2ccccc2)CC1	2.0	-0.5	-2.9	4.6	-0.1	8.0	2.7	-0.2
O=C(NNc1c2ccccc2nc2ccccc12)C(O)c1ccccc1 (stereo not given)	-7.1	0.3	-10.0	3.5	7.0	2.9	3.0	33.7*
O=C(CSc1nc(=O)n2ccccc2n1)NCCc1ccccc1	1.5	-0.2	-6.1	-3.4	-5.1	-10.7	0.5	6.2
COc1ccc(-n2c(=O)/c(=C\c3cccs3)s/c2=C(/C#N)C(=O)N2CCN(C)CC2)cc1	-11.2	1.0	4.5	·	-8.3	-14.4	2.5	-15.5
Cc1ccc(-n2c(=O)[nH]cc(C(=O)N3CCc4ccccc43)c2=O)cc1C	2.5	0.9	11.0	5.9	-1.2	-10.9	-2.3	-0.2
O=C(NCc1ccco1)C(=O)NCC1OCCN1S(=O)(=O)c1ccccc1 (stereo not given)	-1.5	-0.2	-3.2	3.2	-0.5	-3.7	0.7	0.6
C/C(N)=C(/C#N)C(=O)COC(=O)CC12CC3CC(CC(C3)C1)C2	5.2	-1.6	-5.9	2.0	1.8	7.1	1.0	6.5
COc1ccc(C(=O)Nc2ccc(N3CCN(C)CC3)cc2)cc1OC	0.0	-0.3	10.7	·	-3.2	-5.8	-1.4	6.2
Cc1ccc(NS(=O)(=O)c2ccc(CCC(=O)NC3CC3)cc2)cc1	-7.3	-1.6	7.4	0.8	-5.8	-2.1	0.4	-2.4
COc1ccc(Nc2nccc(-c3ccc(C#N)cc3)n2)cc1	15.6	0.1	-3.1	2.0	-13.0	19.5	3.8	-5.9
O=C(NC1CCCCC1)c1ccc(CS(=O)(=O)Cc2ccccc2F)o1	-1.7	?	-0.2	4.9	-0.4	2.7	5.0	-1.7
CC(=O)/C(CN1CCCCC1)=N\O	20.7	-1.5	5.9	·	0.5	-11.2	-6.9	-0.2
CCC(=O)NNC(=O)CSc1nnc(-c2ccccc2)c(-c2ccccc2)n1	-1.7	-1.0	0.8	2.8	-2.3	-14.3	2.5	3.1
COc1cc(OC)c(C(=O)NC2CCCc3ccccc32)cc1OC (stereo not given)	37.7	0.8	4.0	1.0	3.7	-2.1	4.1	1.2
CCOc1ccccc1C(=O)NCC(=O)NCCCSc1ccccc1	10.9	0.9	2.0	2.4	1.9	7.9	3.7	-2.5
CCC(NC(=O)C1CCC1)c1ccccc1 (stereo not given)	-2.2	0.0	-4.9	0.7	-6.1	-1.0	-2.7	-0.2
COc1ccccc1CNCC(=O)Nc1ccc(N(C)C)cc1	-6.9	-1.2	4.3	3.2	1.6	-2.2	0.4	-0.1
COC(C/C=C/C(=O)[C@@H](C)OCc1ccccc1)OC	-6.3	-0.2	1.9	4.8	-7.8	-25.2	0.4	-3.2
CCC1(CC)NC(=O)N(Cc2nc3ccccc3s2)C1=O	-3.4	0.2	0.7	0.1	3.7	-5.0	5.1	-0.4
O=C(CS(=O)(=O)c1ccccc1)N(CCCN1CCOCC1)c1nc2c(F)cccc2s1	8.5	3.0	-8.1	·	-6.6	12.3	6.4	-2.1
O=C(CN1C(=O)NC2(CCCC2)C1=O)OCCOc1cccc(Br)c1	-0.5	-0.9	3.0	4.8	-6.6	-31.6	-1.5	0.6
O=C(NCCn1cccn1)C1CCC(=O)N(CCc2ccc(Cl)cc2)C1 (stereo not given)	1.1	·	5.5	2.0	·	-15.3	·	-2.3
CC(=O)NCCc1cc2ccc(C)cc2[nH]c1=O	2.3	0.2	7.4	-0.8	-5.5	-10.3	0.5	2.7
CCn1nc(NC(=O)CC(C)C)c2cc3ccc(C)cc3nc21	4.1	0.5	12.3	-61.4	·	-13.7	-6.0	9.9
O=C(Cc1cccs1)Nc1ccc(F)c(F)c1	-1.9	0.6	-2.1	0.9	-0.4	?	-4.1	0.8
COC(=O)c1ccc(NC(=O)Nc2ccc3c(c2)nc(C)n3C)cc1	-5.5	-0.3	7.6	3.5	5.4	-6.2	-4.6	1.2
O=C(Nc1ccc(Cl)cc1)C1CCCN(c2ncnc3c2nc2n3CCCCC2)C1 (stereo not given)	6.5	-0.3	-2.8	2.5	19.2	11.9	-7.1	0.0

From PubChem
